Ecoli rRNA inh: inhibits bacterial ribosomal RNA function over humanized ribosomes; E. coli WT GFP vs humanized-ribosome RFP mutants, fluorescence, 24 h; hits give low values; DMSO median 0, no signal -100; actives 1.6% (n = 350,000); AID 720706; GFP signal change (wild-type ribosome), % (no concentration beside the values);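 active = significant combined selectivity score with lowered wild-type GFP, culture density cut under 30%, mutant RFP and density less affected; inactive = any of these conditions unmet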; also: one replicate is shown; some compounds called inactive have numbers as strong as hits
ALR H2O2 inh: human ALR oxidase inhibition via reduced H2O2 | actives 3.8% (n = 290,000) | purified ALR, DTT oxidation, H2O2 HRP-luminol luminescence | AID 485317 | inhibition, % (test concentration not listed) | P55789;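 active = mean and each replicate at 75% or more; inconclusive = only one of the two met; inactive = neither met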;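 also: stock transfer was 7.5 nL into about 7.5 µL; 0% = neutral wells and 100% = wells with inactivated enzyme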
Target sequence (P55789 whole entry, looked up): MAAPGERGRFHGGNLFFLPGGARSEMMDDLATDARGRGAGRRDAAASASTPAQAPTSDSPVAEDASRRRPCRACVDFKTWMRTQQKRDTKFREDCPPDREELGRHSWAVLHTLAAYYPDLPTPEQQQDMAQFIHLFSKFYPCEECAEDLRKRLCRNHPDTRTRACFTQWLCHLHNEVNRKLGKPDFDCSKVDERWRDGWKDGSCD
HNF4A DNA FP: change in binding of human HNF4 alpha to DNA. P41235. HNF4a-FITC DNA binding, fluorescence polarization, 1 h. activity change, % at 10 µM. actives 0.3% (n = 360,000). AID 1224865; in the data active = activity change above about 30%, passing the limit was not always enough;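 also: controls were the assay level and a saturating level of protein; the project sought stronger binding though the title names inhibitors; some compounds called inactive have numbers as strong as hits; positive values seem to mean higher polarization but the record does not say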
Ecoli growth: blocks Escherichia coli growth | OD600 absorbance (no concentration beside the values) | actives 0.21% (n = 330,000) | OD600, 23 h; hits give low values | AID 1053175;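 active = OD600 absorbance below the run mean of sample wells minus 3.6 SD, in any replicate, cut at about 0.56 in these data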;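 also: stock transfer was 300 nL into about 60 µL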
Vif TR-FRET: inhibitors of Vif binding to APOBEC3G peptide, primary screen, biochemical, TR-FRET, GST-Vif 1-94, biotin-A3G peptide, dose response retest (AID 1117319); TR-FRET GST-Vif / biotin-A3G peptide binding; higher % means a stronger effect; test concentration not given here; strong numbers were not always called active; actives 0.57% (n = 260,000); one-dose inhibition, %; IC50 in µM for titrated hits;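 active = above the screen mean plus three standard deviations and confirmed in dose response; inconclusive = results disagree or hit not tested in dose response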;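 also: Vif residues 1-94 fused to GST binding biotinylated APOBEC3G peptide 110-148; 0% = full assay without inhibitor and 100% = GST in place of GST-Vif; retest series ran down from 100 µM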
FGF22 binding: binders of recombinant human FGF22 by thermal shift; Q9HCT0; AID 651658; actives 1.5% (n = 340,000); calls only at 9.99 µM; SYPRO orange fluorescence; percent of sucrose octasulfate shift, DMSO zero;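 active = melting point raised past a set limit in the mean and every replicate; inconclusive = no clear call; three in four hits are not shown here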
Target sequence (Q9HCT0 whole entry, looked up): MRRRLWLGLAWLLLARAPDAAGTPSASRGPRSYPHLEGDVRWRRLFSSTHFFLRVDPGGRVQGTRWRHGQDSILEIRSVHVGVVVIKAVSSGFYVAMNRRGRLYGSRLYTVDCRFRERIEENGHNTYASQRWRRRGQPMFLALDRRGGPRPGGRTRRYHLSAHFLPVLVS
AF4-AF9 inh: blocks AF4 peptide binding to human AF9. actives 0.47% (n = 350,000). P42568. inhibition, % at 10 µM. AlphaScreen, biotin-AF4 peptide binding to FLAG-AF9;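 active = every replicate reaching a set inhibition limit, whatever the replicate mean, cut at about 25% in these data; inconclusive = mean inhibition reaches that limit but some replicates miss it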;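 also: 0% = plate neutral control median and 100% = total signal loss; the record names both 10 and 1 µM as test concentration; the first replicate is given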
Target sequence (P42568 whole entry, looked up): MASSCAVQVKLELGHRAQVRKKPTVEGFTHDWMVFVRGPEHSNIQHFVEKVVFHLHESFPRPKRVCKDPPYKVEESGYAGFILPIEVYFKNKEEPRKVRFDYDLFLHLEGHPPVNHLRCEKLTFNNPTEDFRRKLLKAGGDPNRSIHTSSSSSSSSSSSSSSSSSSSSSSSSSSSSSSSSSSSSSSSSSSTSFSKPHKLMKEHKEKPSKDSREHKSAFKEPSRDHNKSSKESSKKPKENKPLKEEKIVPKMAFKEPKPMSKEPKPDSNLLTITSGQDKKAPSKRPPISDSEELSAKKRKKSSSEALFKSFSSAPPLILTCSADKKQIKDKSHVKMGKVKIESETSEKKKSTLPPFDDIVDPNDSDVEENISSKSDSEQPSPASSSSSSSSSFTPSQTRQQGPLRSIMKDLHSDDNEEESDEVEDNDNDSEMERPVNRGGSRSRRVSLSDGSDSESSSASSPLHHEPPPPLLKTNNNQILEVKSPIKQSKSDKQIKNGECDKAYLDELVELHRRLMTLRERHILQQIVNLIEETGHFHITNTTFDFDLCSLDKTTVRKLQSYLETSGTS
Ecoli rRNA inh OD600: further read-out of Ecoli rRNA inh, marked with its call; OD600 change, %; measured here: OD600 growth;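 optical density of the mix in the first replicate; 0 = DMSO median and -100 = no signal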
Ecoli rRNA inh RFP: further read-out of Ecoli rRNA inh, marked with its call; RFP signal change, %; measured here: RFP humanized mutant strains;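 first replicate; 0 = DMSO median and -100 = no signal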
The depositor's hits bear a star; i = inactive; ? = inconclusive; . = not tested or not shown.

SMILES | Ecoli rRNA inh | Ecoli rRNA inh OD600 | Ecoli rRNA inh RFP | ALR H2O2 inh | HNF4A DNA FP | Ecoli growth | Vif TR-FRET | FGF22 binding | AF4-AF9 inh
C[C@@H]1CN([C@H](C)CO)C(=O)c2cc(NC(=O)Nc3cccc4ccccc34)ccc2O[C@@H](C)CCCCO[C@@H]1CN(C)C(=O)C1CCCCC1 | 1.7 | -0.1 | -3.5 | . | . | . | . | i | -0.9
C=CCN(C(=O)C1CC(=O)N(C2CCCC2)C1)c1nc(-c2ccc(S(C)(=O)=O)cc2)cs1 (stereo not drawn) | -13.5 | -45.2 | 20.8 | . | 1.1 | 0.66 | -20.2% | i | -0.5
CCOc1ccc(Cc2nc(C)c(CC(=O)N3CCOCC3)c(=O)[nH]2)cc1 | . | . | . | -8.7 | 0.1 | 0.716 | 3.0% | . | .
Cc1cc(C)cc(N(CC(=O)NCc2cccnc2)S(C)(=O)=O)c1 | 2.0 | 2.5 | 6.8 | -0.3 | -0.6 | 0.656 | 36.7µM* | i | -9.1
CCN(CC)CCNC(=O)C(=O)NCC1OCCN1S(=O)(=O)c1ccc2c(c1)OCCO2 (stereo not drawn) | . | . | . | -12.3 | 1.2 | 0.703 | 7.2% | . | .
NS(=O)(=O)c1ccc(NS(=O)(=O)c2cccs2)cc1 | 10.0 | 6.5 | -1.5 | -9.1 | -0.2 | 0.728 | -0.4% | i | -40.0
Cc1cc(C(=O)CSc2nnc(-c3ccccc3)o2)c(C)n1CC1COc2ccccc2O1 (stereo not drawn) | . | . | . | -6.3 | 2.0 | 0.742 | -4.9% | . | .
CC1CCCC(C)N1C(=O)COC(=O)CCC1CCCC1 (stereo not drawn) | 5.4 | 7.9 | -0.3 | . | 0.5 | 0.672 | . | i | -4.6
Cc1noc(C)c1NC(=O)Nc1ccc2c(c1)C(=O)N([C@@H](C)CO)C[C@H](C)[C@@H](CN(C)Cc1ccc(C(F)(F)F)cc1)OCCCC[C@@H](C)O2 | 1.0 | 3.8 | 0.1 | . | . | . | . | i | 5.6
COc1ccc(C(=O)C2CCN(C(=O)c3ccc(C)cc3)CC2)cc1 | . | . | . | -0.2 | -2.2 | 0.678 | -2.7% | . | .
Cc1[nH]nc(SCC(=O)N2CCOCC2)c1[N+](=O)[O-] | 3.8 | 1.2 | 2.7 | -5.7 | -0.1 | 0.69 | 15.2% | i | -1.5
O=C(CSCC(=O)NN=Cc1ccccc1O)NN=Cc1ccccc1O | -30.7 | -33.0 | -8.8 | . | 1.2 | 0.632 | -3.8% | i | -0.3
O=C(C[C@@H]1C[C@H]2c3cc(NC(=O)NC4CCCC4)ccc3O[C@H]2[C@H](CO)O1)NCC1CC1 | -2.0 | 3.0 | -3.5 | . | . | . | . | i | -0.9
Cc1nc(-c2ccc(O)c(O)c2)cs1 | . | . | . | 99.5* | -0.1 | 0.752 | ? | . | .
COc1ccc(N2CC(C(=O)Nc3ccc(S(=O)(=O)N4CCOCC4)cc3)CC2=O)cc1 (stereo not drawn) | 11.6 | 8.8 | 1.4 | 1.8 | 2.5 | 0.671 | -3.0% | i | -0.4
CC(=O)Nc1ccc(NC(=O)c2c(C)nn(Cc3ccccc3)c2Cl)cc1 | 2.2 | -0.8 | -0.8 | -1.5 | 1.9 | 0.664 | 0.4% | i | -2.1
Cc1ccc(-n2nc3c(=O)n(CCCC(=O)NCC(C)c4ccccc4)nc(C)c3c2C)cc1 (stereo not drawn) | 13.9 | -0.6 | 4.2 | -5.4 | 0.5 | 0.67 | . | i | -4.0
O=C(N/C(=C/c1cccc([N+](=O)[O-])c1)C(=O)N1CCCCC1)c1cccs1 | . | . | . | 1.4 | 2.1 | 0.662 | . | . | .
COC(OC)c1ccnc(-c2ccc(OC(=O)c3ccc(F)cc3)cc2)n1 | -7.6 | -1.6 | 1.4 | -0.9 | -1.8 | 0.676 | -14.3% | i | 2.7
COCC#Cc1ccc2c(c1)O[C@@H](CN(C)Cc1ccccc1)[C@@H](C)CN([C@H](C)CO)S2(=O)=O | -9.7 | -11.7 | 4.3 | . | . | . | . | i | 3.4

Profiles from above. Order of values: Ecoli rRNA inh | Ecoli rRNA inh OD600 | Ecoli rRNA inh RFP | ALR H2O2 inh | HNF4A DNA FP | Ecoli growth | Vif TR-FRET | FGF22 binding | AF4-AF9 inh
`CC(=O)Nc1ccc(NC(=O)c2c(C)nn(Cc3ccccc3)c2Cl)cc1` is listed with 2.2 | -0.8 | -0.8 | -1.5 | 1.9 | 0.664 | 0.4% | i | -2.1
`COc1ccc(N2CC(C(=O)Nc3ccc(S(=O)(=O)N4CCOCC4)cc3)CC2=O)cc1` (stereo not drawn) is listed with 11.6 | 8.8 | 1.4 | 1.8 | 2.5 | 0.671 | -3.0% | i | -0.4
`O=C(C[C@@H]1C[C@H]2c3cc(NC(=O)NC4CCCC4)ccc3O[C@H]2[C@H](CO)O1)NCC1CC1` is listed with -2.0 | 3.0 | -3.5 | . | . | . | . | i | -0.9
`Cc1ccc(-n2nc3c(=O)n(CCCC(=O)NCC(C)c4ccccc4)nc(C)c3c2C)cc1` (stereo not drawn) is listed with 13.9 | -0.6 | 4.2 | -5.4 | 0.5 | 0.67 | . | i | -4.0
`Cc1nc(-c2ccc(O)c(O)c2)cs1` is listed with . | . | . | 99.5* | -0.1 | 0.752 | ? | . | .

(list continues)
SMILES | Ecoli rRNA inh | Ecoli rRNA inh OD600 | Ecoli rRNA inh RFP | ALR H2O2 inh | HNF4A DNA FP | Ecoli growth | Vif TR-FRET | FGF22 binding | AF4-AF9 inh
O=C(NCc1ccccc1)c1ccc(Cl)c(S(=O)(=O)N2CCCC2)c1 | -12.9 | -12.0 | 6.0 | . | -1.8 | 0.692 | . | i | -1.1
O=c1oc2cc(O)ccc2cc1-c1nc2c(s1)CCc1ccccc1-2 | . | . | . | -74.1 | -95.1 | 0.679 | 6.0% | . | .
Cc1nc(NCCc2ccccc2)c2nnn(Cc3ccccc3)c2n1 | 7.6 | 10.8 | -1.1 | 0.5 | 2.1 | 0.69 | -9.0% | i | 3.6
CCN1CCN(c2oc(-c3ccco3)nc2C#N)CC1 | 8.3 | 3.7 | 1.7 | -6.9 | 1.4 | 0.626 | 5.8% | i | -3.5
CCOc1ccc(/C=N/NC(=S)NC2CC3CCC2C3)cc1 (stereo not drawn) | -16.8* | 1.4* | 3.3* | -1.2 | -0.6 | . | -3.9% | i | 5.1
Cc1ccc(C)c(N2CCN(C(=O)c3ccc(CS(=O)Cc4cccc(Cl)c4)o3)CC2)c1 (stereo not drawn) | -26.8 | -63.5 | 32.2 | 46.1 | -0.9 | 0.639 | . | i | 6.3
CC(=O)Nc1ccc(NC(=O)C(NC(=O)c2ccc(Cl)cc2)C(C)C)cc1 (stereo not drawn) | -1.5 | 0.7 | 7.5 | . | 2.6 | . | 10.1% | i | 0.3
NNc1nc(-c2ccccc2)cc(-c2ccccc2O)n1 | -18.5 | -12.6 | -3.5 | -14.1 | 5.3 | 0.654 | 3.3% | i | -3.9
CC1(C(=O)NCCC(F)(F)F)Cc2c(-c3ccccc3)ccnc2O1 (stereo not drawn) | 1.1 | -25.0 | -12.8 | . | -1.8 | . | . | i | -3.9
Cc1cccc(NC(=O)CSc2nc3ccccc3c(=O)n2C)c1 | -5.2 | -7.7 | -2.7 | . | -2.2 | 0.695 | -6.6% | i | -0.1
O=C1CCCC(O)=C1N=Nc1cccc(S(=O)(=O)N2CCOCC2)c1 | 9.5 | 8.5 | -0.8 | -6.9 | 0.6 | 0.703 | -9.5% | i | -10.1
Cc1ccc(-c2cnc(-c3ccncc3)o2)cc1 | . | . | . | -3.7 | -5.3 | 0.64 | -6.4% | . | .
COc1cc(NC(=O)c2cc(C(C)C)on2)c(OC)cc1Cl | . | . | . | -15.2 | 1.6 | 0.697 | -0.8% | . | .
COc1ccc(CN2CCN(Cc3ccc(C)cc3)CC2)c(OC)c1 | 12.2 | 11.7 | -1.2 | -3.8 | -6.7 | 0.672 | -7.7% | i | 1.7
Cc1cccc(C)c1OCC(=O)N=Nc1c(O)[nH]c2ccc(Br)cc12 | . | . | . | -3.2 | -0.3 | 0.767 | -1.7% | . | .
CCC(=O)N1CCC1(C)C(=O)Nc1ccc2nc(C)ccc2c1 (stereo not drawn) | 3.8 | -0.9 | -0.3 | . | 2.0 | . | . | i | -1.4
N#Cc1c(-c2ccccc2)nc(SCc2ccc(Cl)cc2)[nH]c1=O | -54.8 | -77.5 | -27.4 | . | 0.0 | . | 1.4% | i | -12.8
CC1CCC(N(CCCN)Cc2ccco2)CC1C (stereo not drawn) | 5.7 | 4.3 | -5.7 | -0.1 | 2.9 | 0.652 | 6.2% | i | 7.3
C[C@@H]1CN([C@@H](C)CO)C(=O)c2cc(NC(=O)Nc3cccc4ccccc34)ccc2O[C@@H]1CN(C)Cc1ccccc1 | -1.2 | -16.5 | 7.6 | . | . | . | . | i | 6.5
COc1ccc(NC(=O)c2cccnc2)cc1OCC(C)C | -4.0 | -0.9 | 0.4 | 1.2 | -2.9 | . | 5.0% | i | 0.7
Cc1cccc(S(=O)(=O)N2CC[C@@H]3[C@H](CO)N(C)c4ccc(-c5ccccc5F)cc4[C@@H]32)c1 | -0.9 | 3.9 | -1.4 | . | . | . | . | i | 0.9
O=C(N/N=C/c1cccc2ccccc12)c1cc(C2CC2)[nH]n1 | 1.9 | 11.6 | 3.5 | -0.9 | 1.1 | . | . | i | 1.2
COc1ccc(NC(=O)c2ccc3c(=O)n(-c4ccc(OC)cc4OC)c(=S)[nH]c3c2)c(OC)c1 | -9.2 | -7.2 | 1.0 | 3.8 | -0.4 | 0.735 | -4.1% | . | 4.7
COc1ccc(N2CCN(S(=O)(=O)CCNC(=O)/C=C/c3ccc4c(c3)OCO4)CC2)cc1 | 0.1 | 7.6 | -1.2 | -8.6 | 0.4 | 0.627 | 1.7% | . | 1.4
Cc1ccc(S(=O)(=O)N(C)C[C@H]2OCCCC[C@H](C)Oc3ccc(NC(=O)Nc4ccc(F)cc4)cc3C(=O)N([C@H](C)CO)C[C@@H]2C)cc1 | -2.4 | 2.1 | 0.1 | . | . | . | . | i | -0.3
Cc1no[n+]([O-])c1COc1ccc(/C=C(\C#N)C(N)=O)cc1 | . | . | . | 0.0 | 5.2 | 0.645 | 22.8% | . | .
CC(C)c1ccc(OCC(O)Cn2cnc3ccccc32)cc1 (stereo not drawn) | . | . | . | 3.5 | 0.0 | 0.729 | -2.0% | . | .
CCOc1ccc(-n2c(SCC(=O)OC)nc3sc4c(c3c2=O)CCN(C)C4)cc1 | 2.6 | 3.5 | 2.1 | 99.2* | 1.3 | 0.642 | 10.7% | i | 8.9
CC(C)COc1cccc(C(=O)NNC(=O)C2COc3ccccc3O2)c1 (stereo not drawn) | -20.2 | -17.8 | -1.4 | 1.1 | 3.3 | 0.654 | . | i | -2.2
COc1c(Cl)cc(C(=O)Nc2ccccc2C(=O)O)cc1Cl | . | . | . | 40.2 | 0.8 | 0.688 | 7.1% | . | .
O=C(Nc1cccc(C(=O)O)c1)/C(=C\c1ccccc1)NC(=O)c1ccccc1Cl | . | . | . | -3.2 | -3.2 | 0.659 | -2.1% | . | .
Nc1nnc(CC(=O)N/N=C/c2cccc([N+](=O)[O-])c2)s1 | . | . | . | 32.5 | 2.6 | . | 11.2% | . | .
COc1ccc(N2CCN(C(=O)C(=O)c3cc(OC)c4ccccc4c3)CC2)cc1 | -5.8 | -7.2 | 6.1 | . | -0.9 | . | . | i | 3.4

Bioassay records as filed in PubChem BioAssay.

A portion of the library; the hit share may differ from the screen's.
